# HCMV UL50-53 inh – cytomegalovirus nuclear egress complex inhibition | HTRF UL50-UL53 interaction, normalized percent inhibition | inhibition, % (concentration not given with the values) | 190,000 compounds, 0.15% hits;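 active = both replicates at 50% or more, plus weaker picks with an unusually low signal ratio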;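 note: stock transfer was 100 nL into about 20 µL; 0% = negative control wells and 100% = wells with untagged competitor protein; inactives centre near -12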
# Sa growth inh – S. aureus growth inhibition | S. aureus RN4220 growth, OD600, 20 h, 42 °C; hits give low values | relative growth, % (concentration not given with the values) | 170,000 compounds, 0.53% hits;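 active = growth at 42 °C up to 50% and 20 or more points under that at 30 °C, or under 10% at both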;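 note: 300 nL library stock went into each well; scaled to the means of positive and negative controls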
# GIV-Gai inh – inhibitors of GIV GBA-motif binding to rat Galpha-i3; P08753; Galpha-i3/FITC-GIV peptide fluorescence polarization, 90 min; hits give low values; scaled: aluminum fluoride 0%, vehicle 100%; percent of control (FP), % (no concentration beside the values); 210,000 compounds, 0.42% hits; AID 1224905;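 active = replicate mean at 85% of control or lower, very high polarization wells dropped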;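 note: wells of about 15 µL received 100 nL stock; the first replicate is given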
# Target sequence (P08753 whole entry, looked up): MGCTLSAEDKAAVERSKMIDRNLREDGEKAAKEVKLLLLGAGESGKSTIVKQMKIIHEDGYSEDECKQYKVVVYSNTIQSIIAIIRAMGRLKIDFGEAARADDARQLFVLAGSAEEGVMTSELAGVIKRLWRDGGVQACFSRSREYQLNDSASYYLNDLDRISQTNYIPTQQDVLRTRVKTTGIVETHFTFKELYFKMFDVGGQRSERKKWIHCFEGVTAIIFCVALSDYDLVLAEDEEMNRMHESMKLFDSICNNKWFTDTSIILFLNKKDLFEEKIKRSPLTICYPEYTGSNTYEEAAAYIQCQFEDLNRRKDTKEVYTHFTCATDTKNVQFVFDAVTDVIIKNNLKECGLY
# Sa growth inh second temp – recorded beside Sa growth inh, whose call it bears; relative growth, %; measured here: growth at 30 °C;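 optical density after 20 h as mean of two plates; 100% = untreated growth and lower means inhibition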
# An asterisk follows results filed as active; x = no result given; & = joins results of further samples. Compounds as they come; 0.82% or so of the library scored in one or more.
nr | structure | HCMV UL50-53 inh | Sa growth inh | Sa growth inh second temp | GIV-Gai inh
1 | Cc1ccc2nc(NC(=O)c3ccc(=O)[nH]c3)sc2c1 | -19 | 87 | 76 | x
2 | CCC(=O)Nc1ccc2c(c1)nc(CN1CCN(C)CC1)n2CC | -7 | x | x | 109
3 | COc1ccc(-n2ccnc(SCC(=O)Nc3ccccc3)c2=O)cc1 | -142 | 103 | 86 | 108
4 | CCOc1ccc(NS(=O)(=O)c2cc(C(=O)Nc3ccc(F)cc3)n[nH]2)cc1 | 4 | x | x | 104
5 | Cc1[nH]c2ccccc2c1C1CC(=O)N(c2ccccc2)C1=O (configuration not stated) | -9 | 91 | 96 | x
6 | O=c1[nH]c(-c2ccc(Br)cc2)nc2ccccc12 | 1 | 118 | 75 | 95
7 | CCc1ccccc1Cn1c(=O)oc2cccnc21 | -24 | 106 | 81 | 105
8 | CCn1c2c(c(=O)n3ncc(C(=O)Nc4ccc(F)cc4Cl)c13)CN(Cc1ccc(OC)cc1)CC2 | x | 84 | 79 | 100
9 | CCOc1ccc(N2CC(C(=O)O)CC2=O)cc1 (configuration not stated) | -2 | 108 | 102 | x
10 | O=C(Nc1cccc(C(F)(F)F)c1)NC1(c2ccccc2)CC1 | -9 | 94 | 87 | x
11 | NC1=CC(=O)CC(c2ccc(Cl)cc2)C1 (configuration not stated) | -13 | x | x | 99
12 | O=S(=O)(c1ccc2oc(SCc3cn4cc(Cl)ccc4n3)nc2c1)N1CCOCC1 | -25 | 102 | 89 | x
13 | Cn1nc(-c2ccccc2F)c2cc(C(=O)Nc3cc(F)ccc3F)sc21 | -34 | 91 | 87 | 107
14 | CC(C)(C)c1ccc(COC(=O)C2=COCCO2)cc1 | -32 | 89 | 88 | x
15 | Cc1cc(C)c(N2C(=O)c3nccnc3C2=O)c(C)c1 | -25 | 100 | 87 | 108
16 | COc1cc(C2NC(C(=O)O)CS2)ccc1OCC(N)=O (configuration not stated) | 9 | x | x | 106
17 | CSc1nn(-c2ccccc2)cc1/C(N)=N/OC(=O)Nc1ccccc1 | -28 | 91 | 85 | 103
18 | CC1(C)NC(C)(C)/C(=N\O)C(=NO)/C1=N\O | -13 | 132 | 102 | 94
19 | CSc1nc(-c2ccc(Cl)cc2)nn1S(=O)(=O)c1ccc(NC(C)=O)cc1 | -4 | 104 | 83 | 100
20 | CCOc1cc(C=C2C(=O)NC(=O)NC2=O)ccc1OC(=O)c1ccc(Cl)cc1 | -3 | x | x | 103
21 | COc1ccc(S(=O)(=O)Nc2ccc3c(c2)CCCN3S(=O)(=O)c2ccc(C)cc2)cc1F | x | 93 | 92 | 99
22 | Cn1nc(-c2ccc(C(=O)Nc3cccnc3)cc2)c2ccccc2c1=O | -62 | 104 | 96 | 105
23 | Cc1cccc(NC(=O)N2CCCC2C(=O)O)c1 (configuration not stated) | -10&-28 | 95 | 89 | 99&105
24 | CCCn1c(N)c(C(c2cc(OC)c(OC)c(OC)c2)N2CCCC2)c(=O)[nH]c1=O (configuration not stated) | -18 | 99 | 95 | x
25 | COc1ccc(NC(=O)C(c2ccccc2)N2Cc3ccccc3C2=O)cc1 (configuration not stated) | x | 122 | 86 | 102
26 | COc1cc(NC(=O)C2CCCN(S(=O)(=O)c3cn(C)cn3)C2)cc(OC)c1 (configuration not stated) | x | 78 | 90 | 102
27 | CC(=NCCc1ccc(F)cc1)C1=C(O)c2ccccc2C1=O | x | 112 | 71 | 95
28 | C=CCn1c(=N)n(CC(O)c2ccc(OCC)cc2)c2ccccc21 (configuration not stated) | 8 | 97 | 85 | 108
29 | CN1/C(=C\C=C2C(=O)c3ccccc3C2=O)Sc2ccccc21 | -22 | 102 | 86 | x
30 | CC12CN3CC(C)(CN(C1)C3C(O)C(O)C(O)CO)C2 (configuration not stated) | -27 | 88 | 86 | 103
31 | CCOc1ccc(NC(=O)CCc2c(C)nc3nc(CN)nn3c2C)cc1 | -5 | x | x | 107
32 | COc1cc(OC)cc(-c2cc3nc(-c4ccccc4)cc(N4CCN(c5ccccc5)CC4)n3n2)c1 | 0 | 101 | 93 | 106
33 | COc1ccc(S(=O)(=O)NCC(c2ccc(N(C)C)cc2)N2CCc3ccccc32)cc1F (configuration not stated) | x | 106 | 96 | 96
34 | Cc1cc(C(F)F)c2c3ccccc3n(C)c2n1 | 5 | 98 | 98 | x
35 | Cc1cccc(C)c1NC(=O)CCSc1nc(-c2ccc3c(c2)OCO3)cc(C(F)(F)F)n1 | -22 | 94 | 91 | 99
36 | Cn1cnnc1SCc1ccc(C#N)cc1 | -40 | 109 | 90 | x
37 | COCCCNC(=O)Cn1c(=O)n(-c2cccc(C)c2)c(=O)c2c3c(sc21)CN(C(C)=O)CC3 | -8 | 93 | 95 | 97
38 | CCc1ccccc1NC(=O)c1cnc2sc(N3CCCC3)nn2c1=O | x | 91 | 101 | 108
39 | CCN1CCN(C(=O)c2oc3ccc4c(c3c2C)C(=O)CC2(CCCCC2)O4)CC1 | -47 | 98 | 76 | 103
40 | CCCSc1ncc(Cl)c(C(=O)Nc2nc3ccc(OCC)cc3s2)n1 | -5 | 107 | 105 | 106
41 | CC1CCN(S(=O)(=O)c2ccc(-c3nc(C#N)c(NC4CC4)o3)cc2)CC1 | -38 | x | x | 102
42 | CCN(C(=O)Cn1cnc2onc(-c3ccc(F)cc3)c2c1=O)c1ccc(OC)cc1 | x | 128 | 96 | 103
43 | CC(C)(C)c1cc(C(=O)Oc2cccnc2)cc(C(=O)Oc2cccnc2)c1 | -8 | 100 | 94 | 107
44 | CN1C2C=C(N(CCc3c[nH]c4ccccc34)C(=O)c3ccc(Cl)cc3)CC1CC2 (configuration not stated) | -9 | x | x | 104
45 | CCOc1cc(C=NN2CCN(Cc3ccccc3)CC2)ccc1O | 6 | 96 | 96 | 102

# Copied from above: nos. 40 to 42
nr | structure | HCMV UL50-53 inh | Sa growth inh | Sa growth inh second temp | GIV-Gai inh
40 | CCCSc1ncc(Cl)c(C(=O)Nc2nc3ccc(OCC)cc3s2)n1 | -5 | 107 | 105 | 106
41 | CC1CCN(S(=O)(=O)c2ccc(-c3nc(C#N)c(NC4CC4)o3)cc2)CC1 | -38 | x | x | 102
42 | CCN(C(=O)Cn1cnc2onc(-c3ccc(F)cc3)c2c1=O)c1ccc(OC)cc1 | x | 128 | 96 | 103

# Next section.
nr | structure | HCMV UL50-53 inh | Sa growth inh | Sa growth inh second temp | GIV-Gai inh
46 | O=C(c1cccc(-n2cnc3cccnc32)c1)N1CCOCC1 | 3 | x | x | 98
47 | N#CC1(NC(=O)CN2CCN(C(=O)c3ccccc3)CC2)CCCC1 | -29 | 124 | 84 | x
48 | CC(C)OC(=O)N(C)c1ccc(C(O)(C(F)(F)F)C(F)(F)F)cc1 | x | 97 | 76 | 106
49 | COC(=O)CNC(=O)c1cc(-c2ccc3c(c2)OCO3)nc2c(C)c(Cl)ccc12 | -16 | 111 | 103 | 104
50 | Cc1cccc(N2CCN(C(=O)c3sc4nc5n(c(=O)c4c3C)CCC5)CC2C)c1 (configuration not stated) | 2 | 122 | 90 | 101
51 | O=C1SC(Nc2ccccc2Br)C(=O)N1c1ccccc1 (configuration not stated) | -17 | 85 | 78 | 102
52 | CC(=O)N/C(=C/c1ccccc1)C(=O)N1CCCCC1 | -5 | 111 | 99 | 106
53 | CN(C)CC(O)C1CCOC(C)(C)C1 (configuration not stated) | 11 | 90 | 102 | 103
54 | NC(=NCCCCCCN=C(N)/N=C(\N)Nc1ccc(Cl)cc1)/N=C(\N)Nc1ccc(Cl)cc1 | -13&-6 | -0.8* | -1.0* | x
55 | O=C(CSc1ccccc1)N1CCCCCC1 | 4 | 105 | 102 | x
56 | CCc1ccc(NC(=O)Cn2c(=O)n(CCCC(=O)NCc3ccc4c(c3)OCO4)c(=O)c3ccccc32)cc1 | -8 | 99 | 86 | 106
57 | CCS(=O)(=O)N1CCc2nc(-c3ccc(OC)c(OC)c3)sc2C1 | -19 | x | x | 103
58 | CCn1c(SCC#N)nnc1-c1cccc(C)c1 | -2 | 88 | 107 | 96
59 | C=CCN=C1SC(C)C(=O)N1S(=O)(=O)c1ccccc1 (configuration not stated) | 2 | 104 | 76 | 102
60 | Cc1ccc(OC(=O)c2cccc(S(=O)(=O)N3CCOCC3)c2)c(-n2nc3ccccc3n2)c1 | -28 | 106 | 81 | 98

# From entry 38 up to 59, as listed above:
nr | structure | HCMV UL50-53 inh | Sa growth inh | Sa growth inh second temp | GIV-Gai inh
38 | CCc1ccccc1NC(=O)c1cnc2sc(N3CCCC3)nn2c1=O | x | 91 | 101 | 108
39 | CCN1CCN(C(=O)c2oc3ccc4c(c3c2C)C(=O)CC2(CCCCC2)O4)CC1 | -47 | 98 | 76 | 103
40 | CCCSc1ncc(Cl)c(C(=O)Nc2nc3ccc(OCC)cc3s2)n1 | -5 | 107 | 105 | 106
41 | CC1CCN(S(=O)(=O)c2ccc(-c3nc(C#N)c(NC4CC4)o3)cc2)CC1 | -38 | x | x | 102
42 | CCN(C(=O)Cn1cnc2onc(-c3ccc(F)cc3)c2c1=O)c1ccc(OC)cc1 | x | 128 | 96 | 103
43 | CC(C)(C)c1cc(C(=O)Oc2cccnc2)cc(C(=O)Oc2cccnc2)c1 | -8 | 100 | 94 | 107
44 | CN1C2C=C(N(CCc3c[nH]c4ccccc34)C(=O)c3ccc(Cl)cc3)CC1CC2 (configuration not stated) | -9 | x | x | 104
45 | CCOc1cc(C=NN2CCN(Cc3ccccc3)CC2)ccc1O | 6 | 96 | 96 | 102
46 | O=C(c1cccc(-n2cnc3cccnc32)c1)N1CCOCC1 | 3 | x | x | 98
47 | N#CC1(NC(=O)CN2CCN(C(=O)c3ccccc3)CC2)CCCC1 | -29 | 124 | 84 | x
48 | CC(C)OC(=O)N(C)c1ccc(C(O)(C(F)(F)F)C(F)(F)F)cc1 | x | 97 | 76 | 106
49 | COC(=O)CNC(=O)c1cc(-c2ccc3c(c2)OCO3)nc2c(C)c(Cl)ccc12 | -16 | 111 | 103 | 104
50 | Cc1cccc(N2CCN(C(=O)c3sc4nc5n(c(=O)c4c3C)CCC5)CC2C)c1 (configuration not stated) | 2 | 122 | 90 | 101
51 | O=C1SC(Nc2ccccc2Br)C(=O)N1c1ccccc1 (configuration not stated) | -17 | 85 | 78 | 102
52 | CC(=O)N/C(=C/c1ccccc1)C(=O)N1CCCCC1 | -5 | 111 | 99 | 106
53 | CN(C)CC(O)C1CCOC(C)(C)C1 (configuration not stated) | 11 | 90 | 102 | 103
54 | NC(=NCCCCCCN=C(N)/N=C(\N)Nc1ccc(Cl)cc1)/N=C(\N)Nc1ccc(Cl)cc1 | -13&-6 | -0.8* | -1.0* | x
55 | O=C(CSc1ccccc1)N1CCCCCC1 | 4 | 105 | 102 | x
56 | CCc1ccc(NC(=O)Cn2c(=O)n(CCCC(=O)NCc3ccc4c(c3)OCO4)c(=O)c3ccccc32)cc1 | -8 | 99 | 86 | 106
57 | CCS(=O)(=O)N1CCc2nc(-c3ccc(OC)c(OC)c3)sc2C1 | -19 | x | x | 103
58 | CCn1c(SCC#N)nnc1-c1cccc(C)c1 | -2 | 88 | 107 | 96
59 | C=CCN=C1SC(C)C(=O)N1S(=O)(=O)c1ccccc1 (configuration not stated) | 2 | 104 | 76 | 102

# The list continues:
nr | structure | HCMV UL50-53 inh | Sa growth inh | Sa growth inh second temp | GIV-Gai inh
61 | CCOc1ccc(NCc2cccn2-c2nnc(N3CCC(C(=O)NC(C)c4ccccc4)CC3)s2)cc1 (configuration not stated) | -20 | 112 | 79 | 102
62 | Cc1ccc(CS(=O)Cc2ccc(C(=O)NCc3cccnc3)o2)cc1 (configuration not stated) | -38 | 111 | 82 | 107
63 | CC(C)CC(C(N)=O)N1C(=O)c2ccccc2C1=O (configuration not stated) | -48 | 89 | 96 | 96
64 | C=C(C)c1cccc(C(C)(C)NC(=O)Nc2ccc(N3CCOCC3)cc2)c1 | -4 | 115 | 98 | 104
65 | Cn1ccc2cc(S(=O)(=O)N3CCN(C(=O)Nc4ccccc4Br)CC3)ccc21 | -24 | x | x | 104
66 | CC1(C)Cc2c(c(N3CCOCC3)nc3sc(-c4ccc(C(=O)O)o4)c(N)c23)CO1 | -47 | 93 | 86 | 115
67 | Cc1nc2c(c(C)c1CCC(=O)NCCC1=CCCCC1)c(=O)n(C)c(=O)n2C | -27 | 86 | 89 | 100
68 | O=C(COc1cccc2ccc(N3CCCC3)nc12)Nc1ccc(Cl)cc1 | -26 | x | x | 100
69 | Nc1c(C(=O)Nc2ccc(C(=O)O)cc2)sc2nc3c(cc12)CCCC3 | -121 | 99 | 85 | 110
70 | c1ccc(CSc2nnnn2-c2ccccc2)cc1 | x | 94 | 100 | 98
71 | N=c1c2c3c(sc2ncn1CCO)CCCC3 | -22 | 101 | 83 | 108
72 | Cc1c(C(=O)N(CC2CCCO2)C2CCS(=O)(=O)C2)oc2ccc(F)cc12 (configuration not stated) | -35 | 84 | 84 | x
73 | CN1CCC(N(C)C(=O)c2cc3ccccc3oc2=O)CC1 | -10 | 87 | 100 | x
74 | Cc1cc([N+](=O)[O-])ccc1NC(c1nnc(-c2ccccc2)o1)c1ccccc1F (configuration not stated) | x | 96 | 91 | 105
75 | COCCN1CCC(=O)C(C)C1C (configuration not stated) | 2 | 102 | 97 | 102

# Compound activity as filed in PubChem.
